Bioassay records from PubChem BioAssay.
CSC inhib = cancer stem cell viability inhibitors, primary screen, luminescence. cancer stem cell-like cells viability. inhibition, % at 7.5 µM. actives 1.1% (n = 300,000);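 active = mean at 75% or more and at least half the replicates too; inconclusive = mean and replicates disagree; tested in HMLE shEcad cells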;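 also: 0% = median of negative and 100% = median of positive control wells; the first replicate is given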
UUG fidelity = modulators of yeast start codon fidelity, primary screen, whole organism, S. cerevisiae, single point, plate reader. S. cerevisiae UUG-firefly luciferase reporter, luminescence/redox ratio. activity score, % at 18.7 µM. actives 0.13% (n = 350,000);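 active = replicate mean at a twofold rise or more, about +100% in these data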;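 also: firefly luciferase made from a UUG start codon reports start codon fidelity; reporter light over untreated wells divided by growth signal over untreated wells; some hits fall short of that in this replicate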
eIF4H FP inh = human eIF4H binding inhibitors, primary screen, translation initiation inhibitor project, biochemical, uHTS, fluorescence polarization | actives 0.94% (n = 290,000) | AID 2012, 2009 | inhibition, % at 35 µM | eIF4H fluorescence polarization binding assay | Eukaryotic translation initiation factor 4H (Homo sapiens), Q15056;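 active = 50% or more with normal probe brightness, or confirmed in later tests; inconclusive = above 50% with abnormal brightness, or retests that disagree; inactive = below 50% or failed in later tests; about a fifth of its hits are not listed in these tables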;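 also: calls also rest on retests at 20 µM and on dose response follow-up; 0% = protein and probe with vehicle and 100% = probe without protein; strong numbers were not always called active; many hits fall short of the cut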
Rce1 inhib = yeast Rce1p protease inhibitors, primary screen, biochemical, fluorescence, cell-free homogeneous. CAAX prenyl protease 2 (Saccharomyces cerevisiae (strain ATCC 204508 / S288c)), Q03530. yeast membranes, quenched prenylated peptide cleavage fluorescence. calls only. actives 0.27% (n = 290,000). AID 2563, 2010;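 active = fall in fluorescence gain of 50% or more versus controls, with final raw signal at or below 3038400; inconclusive = same 50% fall but final raw signal above 3038400; inactive = fall in fluorescence gain under 50%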;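 also: plate controls were neutral control wells for no effect and wells lacking membranes for full effect; tested at 10 µM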
Env fusion inh = inhibitors of HIV-1 Env-driven cell-cell fusion, primary screen, HeLa-JRFL effector, CEM21 target cells, luciferase; actives 1.1% (n = 360,000); inhibition, % at 12.3 µM;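 active = mean replicate inhibition score of at least 50 and every replicate individually at or above 50; inconclusive = only one of the two criteria met; inactive = mean below 50 and not all replicates reaching 50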;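 also: 0% = plate neutral controls and 100% = maraviroc near 300 nM; one replicate is shown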
MT1-MMP act inh = blockers of MT1-MMP proenzyme processing, primary screen, HT1080 RFP-PRO-GFP cells, GFP/RFP fluorescence; GFP/RFP ratio change, % at 20 µM; actives 0.061% (n = 360,000); Matrix metalloproteinase-14 (Homo sapiens), P50281; GFP/RFP ratio fluorescence, overnight; percent of plate control window, DMSO zero;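 active = GFP/RFP ratio change of at least 30% with cell ATP level not reduced by more than half and red fluorescence within 50% of control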; also: strong numbers were not always called active
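Material – HT1080 RFP-PRO-GFP cells · Control set – DMSO wells and RFP-L50D-GFP cells · Incubation – overnight cell settling, then overnight compound exposure, 37 °C, 5% CO2 · Compound dosing – single-point 20 µM compound, 1% DMSO · Read-out – GFP/RFP fluorescence ratio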
PABP polyA inh = PABP poly(A) RNA binding inhibitors, primary screen, biochemical, fluorescence polarization, uHTS; AID 2014, 2009; inhibition, % at 35 µM; actives 1% (n = 290,000);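 active = 50% or more with normal probe brightness, or confirmed in later tests; inconclusive = above 50% with abnormal brightness, or retests that disagree; inactive = below 50% or failed in later tests; about a fifth of its hits are not listed in these tables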;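 also: calls also rest on retests at 20 µM and on dose response follow-up; controls were probe without protein and protein plus probe with vehicle; some compounds called inactive have numbers as strong as hits; many hits fall short of the cut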
Target sequence (P11940 whole entry, looked up): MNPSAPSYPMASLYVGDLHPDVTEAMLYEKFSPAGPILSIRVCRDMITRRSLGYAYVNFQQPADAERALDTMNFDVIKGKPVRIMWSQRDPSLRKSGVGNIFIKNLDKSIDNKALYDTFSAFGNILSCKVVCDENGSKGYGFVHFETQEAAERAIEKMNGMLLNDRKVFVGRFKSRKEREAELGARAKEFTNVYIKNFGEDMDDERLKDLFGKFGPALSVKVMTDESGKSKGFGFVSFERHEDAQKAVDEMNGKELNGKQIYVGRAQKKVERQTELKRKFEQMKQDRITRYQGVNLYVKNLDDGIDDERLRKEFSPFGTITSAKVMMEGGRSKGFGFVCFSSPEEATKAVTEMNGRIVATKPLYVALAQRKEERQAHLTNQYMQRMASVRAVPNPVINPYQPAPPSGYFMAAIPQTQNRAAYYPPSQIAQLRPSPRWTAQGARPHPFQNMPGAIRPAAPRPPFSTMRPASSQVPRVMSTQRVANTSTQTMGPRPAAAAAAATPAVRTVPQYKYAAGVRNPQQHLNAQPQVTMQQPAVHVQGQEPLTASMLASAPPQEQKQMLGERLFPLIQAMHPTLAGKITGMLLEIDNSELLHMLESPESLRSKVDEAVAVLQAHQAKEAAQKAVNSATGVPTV
eIF4H FP inh retest = recorded beside eIF4H FP inh, whose call it bears; inhibition, %; compound at 20 µM; confirmation average;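 mean of two retest wells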
PABP polyA inh retest = further read-out of PABP polyA inh, marked with its call; inhibition, %; compound at 20 µM; confirmation repeats;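 mean of two retest wells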
MT1-MMP act inh RFP = recorded beside MT1-MMP act inh, whose call it bears; RFP signal change, %; measured here: RFP expression control read;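 0 = vehicle wells; hits needed this value within 50% of zero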
An asterisk follows results filed as active; i = inactive; ? = inconclusive; · = not tested or not shown. Compounds as they come; overall some 2.9% were active at least once.

SMILES	CSC inhib	UUG fidelity	eIF4H FP inh	Rce1 inhib	Env fusion inh	MT1-MMP act inh	MT1-MMP act inh RFP	PABP polyA inh	others
COc1ccc(CNCCS(=O)(=O)NCc2ccc(OC)cc2)cc1	·	-7	·	·	-8	3	0	·
O=C(NCc1ccncc1)c1cccc(S(=O)(=O)Nc2ccc(SC(F)F)cc2)c1	-8	·	·	·	25	-1	-15	·
C=C1C(=O)[C@@]23[C@H](O)C[C@@H]4C(C)(C)CC[C@H](O)[C@@]4(C)[C@@H]2CC[C@@H]1[C@H]3O	3	-11	-7	i	-133	27	-27	2
CCOc1ccc(-n2c(C)c(C(C)=O)c3cc(O)ccc32)cc1	15	-16	3	i	44	-9	-7	8
O=C(Cn1cnc(Cl)c1Cl)c1ccccc1	-8	-12	-1	i	7	0	1	-7
COc1cccc(/C=C/C(=O)OCC(=O)Nc2ccc3c(c2)OCCO3)c1	·	-7	·	·	-7	9	7	·
Cc1ccc(-c2noc(CNC(=O)COc3ccccc3C)n2)cc1	-19	6	-4	i	·	0	1	-9
COc1cccc(CC(=O)N2CCCC(CO)(Cc3ccc(F)cc3F)C2)c1 (stereo unspecified)	9	16	-4	i	17	0	0	10
COc1ccc(/C=N\NC(=O)CNC(=O)C(c2ccccc2)c2ccccc2)cc1[N+](=O)[O-]	-8	·	-8	i	-5	1	-1	-8
N#Cc1cc(N)c(Nc2ccccc2)cc1C#N	-20	-20	-7	i	·	-7	-12	-2
CCOC(=O)C1=NOC(CNC(=O)c2c(-c3ccccc3Cl)noc2C)C1 (stereo unspecified)	·	·	7	i	·	-4	4	-3
CN(c1ccccc1)S(=O)(=O)c1ccc(C(=O)Nc2ncccc2O)cc1	·	·	·	i	-2	2	-2	·
Cc1ccc(-c2cc(C(=O)N3CCCCCC3)no2)cc1	1	-32	1	i	-75	5	1	-3
COc1ccccc1Nc1nnc(SCc2cc(=O)n3cc(C)ccc3n2)s1	1	-4	-3	·	-8	0	2	-4
Cc1ccc(OCCCCN2CCCCC2)cc1	-10	-10	3	i	3	-2	-1	-4
O=C(CCCc1ccccc1)Nc1ccc(Br)cc1F	20	-15	-13	i	·	-1	6	-5
CCCN1Cc2cccc(C(=O)Nc3ccc(CN4CCCC4)cc3)c2C1=O	39	-12	6	i	11	4	6	-4
CNC(=O)NC(=O)CSc1nc(-c2cccs2)c(C#N)c(=O)[nH]1	·	·	3	i	4	1	2	14
Cc1ccc(C2c3sc(=O)[nH]c3SC3C(=O)NC(=O)C32)cc1 (stereo unspecified)	-17	-15	15	i	·	0	2	1
COC(=O)c1ccc(OCC(O)CN2C(=O)NC(C)(C)C2=O)cc1 (stereo unspecified)	·	·	-5	i	·	-2	0	6
O=C(N=Nc1c(O)[nH]c2ccc([N+](=O)[O-])cc12)c1ccccc1Cl	-2	25	58	i	-8	-1	-3	6.1*	eIF4H FP inh retest=1;PABP polyA inh retest=94*
Cc1nc2ccc(N3C(=O)CCC3=O)cc2[nH]1	·	2	0	i	·	2	-5	5
COc1cc(CC(=O)OCC(=O)NC2CCCCC2)cc(OC)c1OC	-12	-1	-9	i	2	2	2	31
CCOC(=O)NC(=O)CSc1nc2ccc(OCC)cc2[nH]1	·	-20	0	i	-68	2	0	6
COc1cccc(OC)c1/C(O)=C(\C#N)c1nc2ccccc2[nH]1	4	·	2	i	·	-10	2	0
CC(=O)C1=C(O)C(=O)N(CCC(=O)O)C1c1ccccc1[N+](=O)[O-] (stereo unspecified)	-9	·	12	i	9	-4	5	25
COC(=O)C(=Cc1ccc(OCc2ccc([N+](=O)[O-])cc2)c(OC)c1)C(=O)OC	·	5	6	i	·	-10	-28	-11
O=[N+]([O-])c1cc(-c2n[nH]c(-c3ccccc3)n2)cc([N+](=O)[O-])c1	2	-8	0	i	·	8	-14	2
CCC(C)Sc1nc2c([nH]c3ccccc32)c(=O)n1C (stereo unspecified)	-7	-9	4	i	8	2	-4	-3
Cc1cc(C)c2c(SC(C)C)nc(N)nc2n1	-3	-12	14	i	5	-50	0	15
Cc1c(C(=O)OCC(=O)Nc2c(C)n(C)n(-c3ccccc3)c2=O)oc2ccccc12	-8	·	-8	i	-3	0	4	-1
CCc1ccc(NC(=S)N(CCN2CCOCC2)Cc2ccccc2F)cc1	1	·	-1	i	5	1	1	-3
CCn1c(COc2ccccc2C)nnc1SCC(=O)NCc1ccccc1	-13	·	-2	i	16	4	5	2
Cc1cc(C)n(S(=O)(=O)/C=C/c2ccccc2)n1	-14	-19	-3	i	?	0	-2	8
COc1ccccc1-c1sc2ccccc2c1-c1ccc(O)cc1	·	-44	·	·	10	2	-1	·
CN(CCO)S(=O)(=O)c1ccc2c(c1)C(=NN)c1cc(S(=O)(=O)N(C)CCO)ccc1-2	-8	-9	-6	i	-4	0	2	10
COC(=O)c1sc(N2C(=O)C(O)=C(C(=O)c3ccc(C)o3)C2c2cc(OC)ccc2OC)nc1C (stereo unspecified)	7	-3	-3	i	-8	2	11	-2
O=C(Nc1ccc(F)cc1)C1CCN(S(=O)(=O)c2cccs2)CC1	-4	·	-13	i	0	0	-3	23
COc1ccc(C(=O)NC(C)c2nc3ccccc3[nH]2)cc1OC (stereo unspecified)	·	-11	-12	i	-40	2	6	-8
COc1cc(OC)cc(C(=O)NCCCn2ccnc2)c1	8	-7	1	i	2	0	1	5
CC(C)CC(=O)O/N=C1\C(=O)N(Cc2ccc(Cl)cc2)c2ccc([N+](=O)[O-])cc21	·	·	-20	i	·	·	·	2
O=C(NC1=NCCS1)c1sc2ccccc2c1Cl	-17	-20	-6	i	·	1	-4	-7
Cc1noc(C)c1CSCC(=O)N1CCN(c2ccc(F)cc2)CC1	0	-4	-4	i	?	3	-10	-4
COC(=O)c1ccc(C(C2C(=O)CC(C)(C)CC2=O)C2C(=O)CC(C)(C)CC2=O)cc1	-3	·	-7	i	16	0	1	-2
C/C(CC(=O)NCc1ccco1)=N\NC(=O)Cc1ccccc1	-6	-5	-7	i	·	2	5	-10
C=CCN(CC(=O)c1sc(C(=O)OCC)nc1C)c1cccc(Br)c1	-16	-8	·	i	13	-1	2	·
CN1CCN(S(=O)(=O)c2cccc(C(=O)N(c3ccccn3)C3CCCCC3)c2)CC1	-10	-6	-5	i	·	5	7	7
NC(=O)CC(NC(=O)c1ccccc1)c1ccc(N2CCN(c3ccccc3)CC2)c([N+](=O)[O-])c1 (stereo unspecified)	2	11	-8	i	33	13	-24	-13
Cc1ccc(S(=O)(=O)c2nnn3c2nc(NCCCN2CCCC2=O)c2ccccc23)cc1C	-6	-21	4	i	0	-3	1	6
Cc1ccc(C)c2[nH]c(=O)c(CN(CCN3CCCC3)C(=O)Nc3ccc(F)cc3)cc12	5	-5	-5	i	·	1	5	-11
O=C(NCCCN1CCc2ccccc2C1)Nc1ccc(Br)cc1	34	-7	-3	i	-2	3	-2	3
NC(=O)c1ccc(NC(=O)Cn2c(=O)n(-c3ccccc3)c(=O)c3oc4ccccc4c32)cc1	4	·	9	i	4	4	0	5
CCN(CC)C(=O)c1sc(N)c(C(=O)OC(C)C)c1C	-3	10	2	i	-13	3	7	7
CCOC1=C2CN(S(=O)(=O)c3ccc(C)cc3)[C@H](c3ccccc3)C[C@@H]2N(S(=O)(=O)c2ccc(C)cc2)[C@H](c2cccc(C)c2)C1	·	-17	·	·	14	3	-23	·
S=c1nc(SCc2ccccc2)[nH]c2ccccc12	55	·	-3	i	4	7	3	9
C1CCC(c2nn3c(-c4n[nH]c5c4CCC5)nnc3s2)CC1	4	·	3	i	·	3	-1	2
COc1ccc(OC(=O)Nc2ccccc2)cc1	19	-24	-8	i	·	-1	-1	7
CCCNC(=O)c1ccc(N2CCC3(CC2)CC(c2cccc(Br)c2)=NO3)c([N+](=O)[O-])c1	24	-1	-7	i	-1	-6	-28	-9
COc1ccc(NC2=NC(=S)N(c3ccc(C)cc3)C23CCCCC3)cc1	15	-29	-1	i	-50	-3	-3	-6
COc1ccc(C(=O)Nc2nnc(S(=O)(=O)N3CCC(C)CC3)s2)cc1OC	-4	-19	-8	i	7	0	3	4

Filtered by structure: those above with a furan ring, fused or not
SMILES	CSC inhib	UUG fidelity	eIF4H FP inh	Rce1 inhib	Env fusion inh	MT1-MMP act inh	MT1-MMP act inh RFP	PABP polyA inh	others
Cc1c(C(=O)OCC(=O)Nc2c(C)n(C)n(-c3ccccc3)c2=O)oc2ccccc12	-8	·	-8	i	-3	0	4	-1
COC(=O)c1sc(N2C(=O)C(O)=C(C(=O)c3ccc(C)o3)C2c2cc(OC)ccc2OC)nc1C (stereo unspecified)	7	-3	-3	i	-8	2	11	-2
C/C(CC(=O)NCc1ccco1)=N\NC(=O)Cc1ccccc1	-6	-5	-7	i	·	2	5	-10
NC(=O)c1ccc(NC(=O)Cn2c(=O)n(-c3ccccc3)c(=O)c3oc4ccccc4c32)cc1	4	·	9	i	4	4	0	5

Carrying on.
SMILES	CSC inhib	UUG fidelity	eIF4H FP inh	Rce1 inhib	Env fusion inh	MT1-MMP act inh	MT1-MMP act inh RFP	PABP polyA inh	others
CCOc1ccc(-c2[nH]ncc2-c2ccc(OC)c(OC)c2)c(O)c1	61	-12	-8	·	67*	-5	-13	-5
CCOC(=O)N1CCN(CC(=O)c2ccc(O)c(C)c2O)CC1	-2	18	-8	i	-13	0	-4	-6
CCOC(=O)CSc1ccc(C(=O)N2CCN(C)CC2)cc1[N+](=O)[O-]	-16	-6	-3	i	-1	-1	2	-1
CC(C)Oc1ccc(C(=O)N2CCCC2C(=O)O)cc1 (stereo unspecified)	-5	-1	-7	·	·	4	0	1
Cc1nn(CCOc2cccc(Br)c2)c(C)c1[N+](=O)[O-]	10	·	2	i	5	6	4	-6
COc1ccc(-n2c(SCC(=O)Nc3ccccc3)nc3c(c2=O)SCC3)cc1	3	-3	-13	i	13	1	5	6
C[C@@H]1NS(=O)(=O)[C@H]2C[C@@H]3C=C[C@]2(O3)[C@H]1OC(=O)c1ccccc1Br	-25	3	·	·	-20	2	3	·
CCOc1cc(-c2nc3ccccn3c2NCC2CCCO2)ccc1O (stereo unspecified)	-14	1	-4	i	-16	0	1	6
COCCNC(=O)c1cc2oc3ccccc3c2n1C	-15	-3	1	i	-90	7	10	-5
Cc1ccc(-c2nn(-c3cccc(F)c3)cc2CNCCc2ccncc2)o1	0	-11	-3	i	51	-7	-4	7
Cc1cc(C)nc(NS(=O)(=O)c2ccc(NC(=O)C3CC(=O)N(c4ccccc4)C3)cc2)n1 (stereo unspecified)	-5	·	-8	i	·	3	3	8
COc1ccc(S(=O)(=O)N2CCCOC2CNC(=O)C(=O)NCc2ccncc2)cc1 (stereo unspecified)	-6	-10	2	i	-3	-1	0	-5
Cc1cccc2c(C(=O)Nn3cnnc3)cc(-c3ccccc3Cl)nc12	3	·	16	i	-8	-3	6	1
O=C(Nc1ccccc1SCC1CSc2nc3ccccc3c(=O)n21)c1ccccc1Cl (stereo unspecified)	2	·	-7	i	·	3	-2	-2
